S aureus helic: S. aureus DNA helicase inhibition; 120,000 compounds, 0.05% hits; inhibition, %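 (tested at about 80 µM)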; purified S. aureus helicase, fluorescence unwinding assay; about half of the hits fall short of the stated cut;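 active = both duplicates at 50% or more, or one of them with a favoured structure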;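 note: 0% = mean of negative control wells and 100% = mean of positive control wells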
MgrA-DNA mod: S. aureus MgrA-DNA binding modulation; fluorescence polarization; inhibition, %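 (about 10 µg/mL by stock and volumes)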; 84,000 compounds, 0.13% hits; AID 602314;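 active = above 50% in either of two replicates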;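 note: 0% = protein plus DNA without compound and 100% = DNA alone without protein; higher means less MgrA bound to DNA so lower polarization; one replicate is shown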
* hit, by the source's call; x = not tested or not shown; & = joins results of further samples. An excerpt; count on the stated rates, not on these rows.

SMILES | S aureus helic | MgrA-DNA mod
CC(c1ccccc1)n1c(-c2cccc(S(=O)(=O)N3CCOCC3)c2)n[nH]c1=S (stereo not drawn) | -9 | x
CCC(CC)C(=O)NC12CC3CC(CC(C3)C1)C2 | 6 | 2.6
COc1cc(/C=C2/NC(=S)NC2=O)ccc1OCc1ccccc1[N+](=O)[O-] | x | -2.3
CC(C)c1ccc(NC(=O)COC(=O)/C=C/c2ccco2)cc1 | -16 | 1.9
N#Cc1ccc(S(=O)(=O)N2CCC(C(=O)O)CC2)cc1 | 15 | x
Cc1ccn(C(=S)Nc2ccccc2)n1 | 3 | -1.9
C=CCNC(=O)Nc1ccc(F)c(Cl)c1 | 25 | 6.5
O=c1c2ccccc2nc(SCc2cccc(F)c2)n1CC1CCCO1 (stereo not drawn) | 11 | 1.1
Cc1ccc(-c2csc(C3=C(O)CN(CCCn4ccnc4)C3=N)n2)cc1 | -1 | x
CC1(C)C(=O)N(c2ccccc2F)C(=O)c2ccccc21 | -3 | x
CNC(=S)c1sc2ccccc2c1C | x | -1.0
Cc1cc(C)cc(NC(=O)CSc2nc(-c3ccccc3)nn2C(=O)c2ccco2)c1 | -3 | 3.0
COc1ccc(C(c2c(C)[nH]c3ccccc23)N2CCCC2)cc1 (stereo not drawn) | 21 | x
N/C(=N\C1=NC(C(F)(F)F)(C(F)(F)F)N=C(c2cccnc2)O1)Nc1ccccc1 | 10 | -0.8
CCOCCC(=O)Nc1ccc(OC)cc1 | 3 | 0.4
COCCNC(=O)Cc1csc2nc(-c3ccc(Cl)cc3)cn12 | -7 | x
O=C1CCN(C(=S)NCCc2ccccc2)CC1 | -7 | x
O=c1c2c3nc4ccccc4nc3n(CCN3CCOCC3)c2ncn1CCN1CCOCC1 | -1 | x
COc1cccc(OC)c1C(=O)ON=C1C=CC(=O)C=C1 | 6 | 14
COc1ccc(C2Sc3ccccc3N(CCN(C)C)C(=O)C2OC(C)=O)cc1 (stereo not drawn) | x | 0.9
C/C(=N\O)C1(C)N(O)C(C)(C)C(c2ccc(C)cc2)=[N+]1[O-] (stereo not drawn) | 15 | x
COC(=O)c1cc2sccc2n1CC(=O)N1CCCc2ccccc21 | 3 | x
O=C1CNC(=O)c2c(nc3n2CCC3)N1 | -4 | 0.9
Cc1cccc(NS(=O)(=O)N(C)C)c1 | -1&-9 | -1.6
COc1cc(NC(=O)c2nn3c(c2Br)NC(c2cccs2)CC3C(F)(F)F)c(OC)cc1Cl (stereo not drawn) | x | 0.7
CNC(=O)c1ccc2nc(N)sc2c1 | 4 | -1.1
O=C(O)c1ccc(Sc2ccc(Cl)cc2)c([N+](=O)[O-])c1 | x | -0.7
O=S(=O)(Nc1ccccc1Cl)c1ccc2nc(-c3ccccc3)[nH]c2c1 | 3 | -2.8
Cc1cc2c(CCl)cc(=O)oc2cc1C(C)C | -5 | 3.2
O=C(NC(SC1=NCCS1)C(=O)c1ccccc1)c1ccccc1 (stereo not drawn) | -15 | 0.4
COc1ccc(/C=N/N=C2/NC(=O)/C(=C(/C)c3nonc3C)S2)cc1OC | 11 | -2.2
COc1ccc(C(=O)NCCOc2cc(C)cc(C)c2)cc1OC | 2 | -0.6
CC1=C(C)CS(=O)N(c2ccc(S(N)(=O)=O)cc2)C1 (stereo not drawn) | 12 | x
CC(C)=CCNc1ncnc2nc[nH]c12 | 7 | -3.2
C=CCN1C(=O)C(O)(c2c[nH]c3ccccc23)c2cc(Cl)ccc21 (stereo not drawn) | 3 | 0.4
COC(=O)CSc1c(Cl)cncc1Cl | x | -0.6
COc1ccc(OC)c2sc(N3CCN(C(=O)C(C)C)CC3)nc12 | 13 | x
O=C(Oc1ccccc1Cl)C1COc2ccccc2O1 (stereo not drawn) | 21 | 1.1
Cn1nnnc1Sc1nc(-c2ccccc2)nc2ccccc12 | -5 | x
Cc1cc(=O)oc2cc(NC(=S)NCc3cc(C)n(C)n3)ccc12 | 17 | 3.4
CCOc1cc(C2Nc3ccccc3NC3=C2C(=O)CC(c2ccc(OC)cc2)C3)cc(Br)c1O (stereo not drawn) | x | -2.3
COC(=O)c1sccc1-c1ccc(C2C3=C(CCCC3=O)NC3=C2C(=O)CCC3)o1 | 11 | x
CCOC(=O)CSc1nc2sc(C(=O)N3CCCC3)c(C)c2c(=O)n1CCc1ccccc1 | x | -2.7
C=CCn1c(=O)sc2cc(Br)ccc21 | -12 | 0.5
Cc1cccc(NC(=O)CSC2=NS(=O)(=O)c3ccccc32)c1C | 10 | 17
O=C(Nc1ccccc1)Sc1ccc(F)cc1F | x | -5.8
Cc1cccc(C(CC(=O)N2CCN(c3ccccc3F)CC2)n2cccc2)c1 (stereo not drawn) | -15 | x
O=C(Cn1c(SCc2ccc(F)cc2)nc2cccnc21)N1CCCC1 | 5 | x
CC(=O)/C(N=Nc1ccc(C(C)C)cc1)=C(\C)O | x | 4.7
CCN(CC)CCn1c(=N)n(CC(O)c2ccc(Cl)c(Cl)c2)c2ccccc21 (stereo not drawn) | 17 | x
O=C(O)c1cccc(-c2ccc(/C=N\n3cnnc3)o2)c1 | 1 | -1.8
Cc1csc2nc(CSc3nnnn3-c3ccccc3)cn12 | -6 | x
CCN(CC)CC(O)CN1c2ccccc2Sc2ccccc21 (stereo not drawn) | 13 | x
Oc1ccc2oc3c(c2c1/C=N/N1CCCCC1)CCCC3 | -2 | 2.1
CC(=O)NC(=O)c1cc2c(ccc3ccccc32)oc1=Nc1ccc(C)cc1 | -3 | 3.7
O=C(O)Cc1nc2ccccc2[nH]1 | 5 | -0.5
Cc1ccc2nc(NC(=O)CNc3ccc(F)cc3)sc2c1 | 4 | 0.7
CCC(C(=O)OC)n1cnc2c(nnn2Cc2ccccc2F)c1=O (stereo not drawn) | -1 | -0.2
COc1cc(/C=C2\N=C(c3ccc(C)c([N+](=O)[O-])c3)OC2=O)cc(Br)c1OC(C)=O | x | 2.1
COc1ccc(-c2noc(N3CCC(C(=O)NCCN4CCc5ccccc5C4)CC3)n2)cc1 | 9 | 1.2

Further records:
SMILES | S aureus helic | MgrA-DNA mod
CC(Oc1ccc2c(-c3ccccc3)cc(=O)oc2c1)C(=O)O (stereo not drawn) | x | -2.9
COC(=O)c1sccc1NC(=O)c1ccc(Cl)s1 | 5 | 0.3
CC(=O)Oc1ccc(/C=C2\N=C(c3cc([N+](=O)[O-])ccc3Cl)OC2=O)c(OC(C)=O)c1 | x | -1.4
COC(=O)C(NC(=O)OCc1ccccc1)C(C)OS(=O)(=O)c1ccc(C)cc1 (stereo not drawn) | x | -3.2
Cc1ccc(S(=O)(=O)N(CCC#N)C2CCCCC2)cc1 | 14 | x
CN(Cc1c(F)cccc1Cl)C(=O)C1CC(=O)N(CCc2ccccc2)C1 (stereo not drawn) | -17 | x
Cc1sc(Nc2ccc(C(F)(F)F)cc2)nc1-c1ccc(-c2ccccc2F)cc1 | x | -2.2
CCc1c(C)nc2c(C#N)c[nH]n2c1=O | 0 | -4.8
CC(=O)NC1=NN(c2ccccc2)C(=O)C1 | -3 | -3.2
CC(N=C(NC#N)Nc1ccncc1)C(C)(C)C (stereo not drawn) | x | 0.4&5.6&2.4
CC1(O)C2C3CC4C5C3C1C5C1(OCCO1)C42 (stereo not drawn) | 5 | x
Cc1cccc(NC(=S)N(CCc2ccncc2)C2CCCCC2)c1 | -14 | 1.5
CC(C)(C)n1ncc2c(=O)n(Cc3ccc(Cl)cc3)cnc21 | 8 | -0.9
O=C(NCc1cccs1)C(NS(=O)(=O)c1cccc2nsnc12)c1ccccc1 (stereo not drawn) | 7 | 1.1
Cc1cc(Br)c(-n2cccc2)c(Br)c1Cl | x | 1.6
CNC(=O)C1CCN(S(=O)(=O)c2ccccc2)CC1 | 9 | -27
Cc1ccc(C(=O)Nc2nnc(-c3ccccc3)o2)cc1C | 10 | x
Cc1ccc2nc(N3CCCC3)nc(-c3ccccc3)c2c1 | 6 | x
Cn1cc(C2NC(=O)c3c(sc4c3CCCC4)N2)c2ccccc21 (stereo not drawn) | -4 | 5.6
CSc1nc(C(=O)O)cc(=O)[nH]1 | -35 | x

As a short view, 5 of the compounds above:
SMILES | S aureus helic | MgrA-DNA mod
CC(Oc1ccc2c(-c3ccccc3)cc(=O)oc2c1)C(=O)O (stereo not drawn) | x | -2.9
COC(=O)c1sccc1NC(=O)c1ccc(Cl)s1 | 5 | 0.3
CC(=O)Oc1ccc(/C=C2\N=C(c3cc([N+](=O)[O-])ccc3Cl)OC2=O)c(OC(C)=O)c1 | x | -1.4
COC(=O)C(NC(=O)OCc1ccccc1)C(C)OS(=O)(=O)c1ccc(C)cc1 (stereo not drawn) | x | -3.2
Cc1ccc(S(=O)(=O)N(CCC#N)C2CCCCC2)cc1 | 14 | x

Additional entries
SMILES | S aureus helic | MgrA-DNA mod
CCCCc1cc2c(c(NC(=O)CC)n1)c(=O)oc1ccccc12 | 1 | x
CCOC(=O)c1oc2ccccc2c1COC(=O)c1cccc(S(=O)(=O)N(C)C)c1 | 14 | x
CCOC(=O)/C(C#N)=C(/N)c1cc2cc(Br)cc(Br)c2oc1=O | 14 | -1.4
N#CCCN(Cn1c2ccccc2c2ccccc21)c1ccccc1 | 5 | -1.4
COc1ccccc1NC(=O)Cc1cn2ccsc2n1 | -4 | -0.2
CN1CCN(C(=O)CSc2cc(=O)n(C)c3ccccc23)CC1 | -8 | x
CCC(=O)Nc1nnc(SCc2cc(=O)c(OC(=O)c3cccs3)co2)s1 | -2 | x
Cc1ccc2[nH]c(=O)c(N3CCOCC3)c(-c3ccccc3)c2c1 | 11 | x
O=C(Nc1nc2ccc(Cl)cc2s1)c1cccs1 | -3 | x
COc1cc(C(=O)NC2CC2)ccc1OC(F)F | -13 | x
CS(=O)(=O)c1nc2ccccc2s1 | -13 | -1.4
CCN(CC)C(=O)Cc1cccc(C)c1 | -21 | 2.6
COc1ncnc2c1sc1nc3c(cc12)COC(C)(C)C3 | 5 | 0.0
COc1ccc(C2=C(CC(=O)O)C(=O)CC2)cc1 | 6 | -1.8
O=C(OCc1ccc(Cl)cc1)c1cc(=O)c2ccccc2o1 | 0 | 0.8
CC(=O)N/N=C/c1cc2ccccc2nc1Cl | 21 | x
Cc1ccc(CNS(=O)(=O)c2c(C)noc2C)cc1 | 4 | x
Cc1nc(C(=O)NC2(O)C(=O)c3ccccc3C2=O)cs1 | x | -0.6
O=C(O)CCn1c(=S)n(CCC(=O)O)c2ccccc21 | -8 | 0.3
CC1CN(C(=O)c2ccc(C(=O)c3ccccc3)cc2)CC(C)O1 (stereo not drawn) | -13 | -1.1
CCC(Oc1ccccc1-c1nnc(-c2ccccc2)o1)C(=O)N1CCCC1 (stereo not drawn) | -4 | x
Nc1ccc(CN2C(=O)c3ccccc3C2=O)cc1 | 2 | 0.8
O=C(Nc1ccc(C2=NCCO2)cc1)c1ccc(C(F)(F)F)cc1 | x | -1.4
COc1nc2c(c(-c3cccs3)c1C#N)Cc1ccccc1-2 | x | -3.5
N#Cc1nccnc1Sc1cccs1 | x | -0.5
CN(Cc1ccccc1)C(=O)CCn1ccc2cc(S(=O)(=O)N3CCCCC3)ccc21 | -25 | x
CCOC(=O)C1=C(CSc2nc(-c3ccccc3)ccc2C#N)OC(N)=C(C#N)C1c1cccnc1 (stereo not drawn) | -46 | x
Cn1c(=O)c2c(nc(N3CCN(c4ccccc4)CC3)n2CCSc2nnnn2-c2ccccc2)n(C)c1=O | 8 | x
COc1ccc(C=Nc2ccc3[nH]ncc3c2)c(O)c1 | 13 | 1.2
O=C(NCc1cccs1)c1c(F)cccc1NC(=O)C(c1ccccc1)C1CCCC1 (stereo not drawn) | x | -1.7
Cc1ccc(S(=O)(=O)NC(=O)c2nnc(-c3ccc(F)cc3)o2)cc1 | 0 | x
COCCN1C(=O)c2ccccc2C(C(=O)NCc2cc(OC)ccc2OC)C1c1c[nH]c2ccccc12 (stereo not drawn) | 14 | x
O=C(c1ccc(-c2cccs2)s1)c1ccc(F)cc1F | x | -1.6
CN(C)c1nc(SCC#N)nc(N(C)C)n1 | 18 | 3.8
CO[C@@]1(NC(=O)CSCC#N)C(=O)N2C(C(=O)O)=C(CSc3nnnn3C)CS[C@@H]21 | x | -0.1
Cn1nc(C(F)(F)F)c(-c2ccccc2)c1NC(=O)C1C2C=CC(C2)C1C(=O)O (stereo not drawn) | x | -1.1
Nc1nc(S(=O)(=O)c2ccccc2)c(Cl)s1 | -1 | -2.9
CCN(CC)c1ccc2cc(C(=O)Nc3ccc(C)cc3)c(=N)oc2c1 | -119 | x
CC1CCCC(C)N1C(=O)c1cc2c(s1)-c1ccccc1OC2 (stereo not drawn) | 0 | 1.1
NNC(=O)Cn1nnc(N2CCCC2)n1 | x | 0.0

Entries of single compounds, quoted from the list.
`Cc1ccc(S(=O)(=O)NC(=O)c2nnc(-c3ccc(F)cc3)o2)cc1` is listed with S aureus helic = 0; MgrA-DNA mod = x
`CCOC(=O)C1=C(CSc2nc(-c3ccccc3)ccc2C#N)OC(N)=C(C#N)C1c1cccnc1` (stereo not drawn) is listed with S aureus helic = -46; MgrA-DNA mod = x
`CN(Cc1ccccc1)C(=O)CCn1ccc2cc(S(=O)(=O)N3CCCCC3)ccc21` is listed with S aureus helic = -25; MgrA-DNA mod = x

(listing goes on)
SMILES | S aureus helic | MgrA-DNA mod
Cc1onc(-c2c(Cl)cccc2Cl)c1C(=O)NCCSCc1c(F)cccc1Cl | x | 0.1
COC(=O)Nc1nc2ccc(OC)cc2[nH]1 | 4 | -0.7
CCCN1CCC(Nc2ccc3c(c2)CCC3)CC1 | 18 | -0.2
CC(OC(=O)c1ccncc1)C(=O)Nc1cc(C(F)(F)F)ccc1Cl (stereo not drawn) | -24 | 0.4
C/C(=N\n1cnnc1)c1ccc(-n2cnnn2)cc1 | -4 | -0.5
CCNC(=S)Nc1ccc(F)cc1 | 4 | -1.4
Cc1nc(C(F)(F)F)ccc1C(=O)Oc1ccc(F)cc1F | x | -1.2
COc1ccc(NC(=S)NCCCO)c(OC)c1 | -8 | 1.4
